# High-throughput results: PubChem, several laboratories
# CSC inhib = cancer stem cell inhibition; cancer stem cell-like cells viability, luminescence; inhibition, % at 7.5 µM; 300,000 compounds, 1.1% hits; AID 2717;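 active means mean at 75% or more and at least half the replicates too; inconclusive means mean and replicates disagree; tested in HMLE shEcad cells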;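 further: 0% = median of negative and 100% = median of positive control wells; the first replicate is given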
# HIV Env fusion = blocks HIV Env-driven cell-cell fusion. HeLa-JRFL Env/CEM21 cell fusion, luciferase. inhibition, % at 12.3 µM. 360,000 compounds, 1.1% hits. AID 651610;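 active means mean replicate inhibition score of at least 50 and every replicate individually at or above 50; inconclusive means only one of the two criteria met; inactive means mean below 50 and not all replicates reaching 50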;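 further: 0% = plate neutral controls and 100% = maraviroc near 300 nM; one replicate is shown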
# eIF4H FP inh = inhibitors of RNA binding by human eIF4H. Q15056. eIF4H fluorescence polarization binding assay. inhibition, % at 35 µM. 290,000 compounds, 0.94% hits. AID 2012;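 active means 50% or more with normal probe brightness, or confirmed in later tests; inconclusive means above 50% with abnormal brightness, or retests that disagree; inactive means below 50% or failed in later tests; about a fifth of its hits are not listed in these tables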;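 further: calls also rest on retests at 20 µM and on dose response follow-up; 0% = protein and probe with vehicle and 100% = probe without protein; strong numbers were not always called active; many hits fall short of the cut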
# PABP polyA inh = PABP-poly(A) binding inhibition; P11940; PABP-poly(A) RNA binding, fluorescence polarization; 290,000 compounds, 1% hits; inhibition, % at 35 µM; AID 2014;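 active means 50% or more with normal probe brightness, or confirmed in later tests; inconclusive means above 50% with abnormal brightness, or retests that disagree; inactive means below 50% or failed in later tests; about a fifth of its hits are not listed in these tables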;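 further: calls also rest on retests at 20 µM and on dose response follow-up; controls were probe without protein and protein plus probe with vehicle; some compounds called inactive have numbers as strong as hits; many hits fall short of the cut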
# Target sequence (P11940 whole entry, looked up): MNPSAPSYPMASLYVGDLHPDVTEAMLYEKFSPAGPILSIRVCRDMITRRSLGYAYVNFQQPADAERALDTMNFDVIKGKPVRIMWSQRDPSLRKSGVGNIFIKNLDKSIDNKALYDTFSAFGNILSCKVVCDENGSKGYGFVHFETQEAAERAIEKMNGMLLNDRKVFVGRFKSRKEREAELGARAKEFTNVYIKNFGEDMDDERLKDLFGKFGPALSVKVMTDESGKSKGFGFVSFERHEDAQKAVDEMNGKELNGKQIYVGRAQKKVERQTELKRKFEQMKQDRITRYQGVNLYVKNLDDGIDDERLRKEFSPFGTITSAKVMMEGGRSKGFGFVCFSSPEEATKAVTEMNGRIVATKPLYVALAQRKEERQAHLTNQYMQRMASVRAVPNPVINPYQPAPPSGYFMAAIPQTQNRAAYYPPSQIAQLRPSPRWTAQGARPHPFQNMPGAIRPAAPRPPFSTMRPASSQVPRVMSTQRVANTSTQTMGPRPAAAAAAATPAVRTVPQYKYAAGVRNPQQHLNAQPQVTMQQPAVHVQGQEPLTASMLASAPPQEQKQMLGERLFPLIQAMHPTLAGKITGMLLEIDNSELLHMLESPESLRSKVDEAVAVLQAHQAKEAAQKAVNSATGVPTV
# Yeast UUG start = modulators of start codon recognition fidelity in yeast; S. cerevisiae UUG-firefly luciferase reporter, luminescence/redox ratio; activity score, % at 18.7 µM; 350,000 compounds, 0.13% hits; AID 602363;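 active means replicate mean at a twofold rise or more, about +100% in these data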;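 further: firefly luciferase made from a UUG start codon reports start codon fidelity; reporter light over untreated wells divided by growth signal over untreated wells; some hits fall short of that in this replicate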
# Rce1 inhib = yeast Ras-converting enzyme inhibition | yeast membranes, quenched prenylated peptide cleavage fluorescence | 290,000 compounds, 0.27% hits | calls only | Q03530;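 active means fall in fluorescence gain of 50% or more versus controls, with final raw signal at or below 3038400; inconclusive means same 50% fall but final raw signal above 3038400; inactive means fall in fluorescence gain under 50%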;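 further: plate controls were neutral control wells for no effect and wells lacking membranes for full effect; tested at 10 µM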
# Target sequence (Q03530 whole entry, looked up): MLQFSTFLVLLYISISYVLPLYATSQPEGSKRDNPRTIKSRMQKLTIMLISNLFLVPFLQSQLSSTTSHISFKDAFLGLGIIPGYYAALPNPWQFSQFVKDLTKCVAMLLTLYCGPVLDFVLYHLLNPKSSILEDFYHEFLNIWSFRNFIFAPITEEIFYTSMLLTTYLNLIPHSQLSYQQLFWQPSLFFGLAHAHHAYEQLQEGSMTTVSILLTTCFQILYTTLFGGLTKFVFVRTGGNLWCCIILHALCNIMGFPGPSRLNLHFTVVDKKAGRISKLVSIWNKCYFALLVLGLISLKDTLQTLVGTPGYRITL
# MT1-MMP act inh = blocks activation of human MT1-MMP. 360,000 compounds, 0.061% hits. HT1080 RFP-PRO-GFP cells, GFP/RFP ratio fluorescence, overnight; percent of plate control window, DMSO zero. GFP/RFP ratio change, % at 20 µM;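 active means GFP/RFP ratio change of at least 30% with cell ATP level not reduced by more than half and red fluorescence within 50% of control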; further: strong numbers were not always called active
#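 Compound: 20 µM single dose, 1% DMSO / System: HT1080 RFP-PRO-GFP cells / Controls: DMSO and RFP-L50D-GFP cell wells / Read-out basis: GFP/RFP fluorescence ratio / Schedule: overnight compound exposure at 37 °C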
# eIF4H FP inh retest = recorded beside eIF4H FP inh, whose call it bears; inhibition, %; compound at 20 µM; confirmation average;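 mean of two retest wells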
# PABP polyA inh retest = second read-out of PABP polyA inh, no call of its own (marks repeat the call); inhibition, %; compound at 20 µM; confirmation repeats;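 mean of two retest wells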
# MT1-MMP act inh RFP = second read-out of MT1-MMP act inh, no call of its own (marks repeat the call); RFP signal change, %; measured here: RFP expression control read;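 0 = vehicle wells; hits needed this value within 50% of zero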
# * marks the source's active call; other numbers are inactive results; i = inactive; ? = inconclusive; . = not tested or not shown. These rows are one share of the data (hit frequency here may not be typical).
SMILES,CSC inhib,HIV Env fusion,eIF4H FP inh,PABP polyA inh,Yeast UUG start,Rce1 inhib,MT1-MMP act inh,MT1-MMP act inh RFP,others
COc1ccc(Nc2nc(N)nc(CCl)n2)cc1,-3,1,-7,6,-27,i,-3,-11,
O=C(COC(=O)CCNS(=O)(=O)c1ccc(Cl)cc1)NCc1ccco1,-1,14,-10,-9,-4,i,-5,5,
Cc1nc(NC(=O)CSc2nnc(-c3ccccc3)c(-c3ccccc3)n2)c(Cl)cc1Cl,28,-36,-20,6,-16,i,-12,-6,
Cc1ccc(S(=O)(=O)NNC(=O)C(=O)NNS(=O)(=O)c2ccc(C)cc2)cc1,-10,-49,32,-2,-19,i,3,7,
O=C1CCCN2N=C(SCC(=O)Nc3ccc(Cl)cc3)SC2=N1,7,-6,-1,-9,-12,i,2,-9,
CC1Cc2cc(S(=O)(=O)N3CCC(C(=O)Nc4ccccn4)CC3)ccc2N1C(=O)C1CCC1 (stereo not given),3,12,3,-3,4,i,-5,-28,
O=C(Nc1cccc(O)c1)c1cccc(NC(=O)c2cccs2)c1,17,0,-8,10,-25,i,2,-9,
CCN1CCCC1CNC(=O)CCc1nc(-c2ccc(C)cc2)no1 (stereo not given),3,.,-7,-7,-1,i,4,3,
COC(=O)N/N=C\c1cccc(OC(=O)c2cccs2)c1,1,-58,-5,?,-20,i,5,1,
Cc1ccc(C)c(C(=O)C(C)Sc2nc3nn(-c4ccccc4)c(=O)c-3c3n2CCCCC3)c1 (stereo not given),-4,-9,-16,4,-6,i,-6,-10,
Cc1ccc(S(=O)(=O)NCc2ccc(C(=O)N3CCCC3)cc2)cc1,-9,21,6.8*,78*,0,i,1,0,eIF4H FP inh retest=82*;PABP polyA inh retest=53*
COc1ccc(CN(CC(=O)NC(C)C)C(=O)CCC(=O)Nc2nccs2)cc1,0,-10,-5,0,-12,i,0,-1,
COC(=O)C(C)Oc1ccc2c(-c3cccc([N+](=O)[O-])c3)cc(=O)oc2c1 (stereo not given),-11,-15,-7,-2,-11,i,1,-1,
O=C1CCC(=O)N1CC(O)COc1ccccc1 (stereo not given),0,-21,-5,-2,-7,i,2,4,
CC(C)NCC(O)c1ccc(NS(C)(=O)=O)cc1 (stereo not given),-17,-8,0,-9,-11,i,1,0,
COc1ccc(NC(=O)CSc2nc(O)cc(=O)n2-c2ccccc2OC)cc1,-9,.,3,8,3,i,-1,1,
Cn1cccc1C(=O)/C(C#N)=C/c1ccc(F)cc1,.,4,50,-1,-9,i,0,3,
COc1ccc(Cl)cc1NC(=O)COC(=O)CCCN1C(=O)c2ccccc2C1=O,-11,13,-9,-4,.,i,4,3,
O=C(COc1ccc2ccccc2c1)Nc1ccncc1,21,-5,-9,-5,.,i,0,-19,
COc1ccc(Cc2c(-c3cccc(Cl)c3)nc3ccc(Br)cn23)c(C)c1,.,-75,.,.,-16,.,-6,-5,
Cc1ccc(-c2csc(NC(=O)C[n+]3cc(-c4ccccc4)n4c3CCC4)n2)cc1,3,-5,-12,-33,11,i,5,-25,
CCCCCCOc1ccc(OC(=O)c2cccnc2)cc1,86*,58*,-5,-11,-20,i,-9,-2,
O=C(CCc1ccccc1)Nc1ccc(NC(=O)c2ccco2)cc1,-10,.,-11,11,-15,i,2,6,
COc1ccc(OC)c(CCNC(=O)C2CCN(c3ncnc4c3nc3n4CCCCC3)CC2)c1,0,-9,-12,4,7,i,3,-6,
N#CC(=C1CCCC1)c1nc(-c2cc3ccccc3oc2=O)cs1,-9,.,13,-5,3,i,3,3,
Nc1n[nH]c(C2CC2)c1N=Nc1ccc(Cl)cc1,17,-7,-12,-2,-19,i,1,-3,
O=C(O)COc1ccc(NC(=O)c2ccco2)cc1,12,.,-10,-6,-11,i,3,2,
COc1ccc(/C=C(/NC(=O)c2cccc([N+](=O)[O-])c2)C(=O)O)cc1OC,-6,-2,3,2,.,i,-2,-2,
C[C@@H]1CN(S(=O)(=O)c2c(F)cccc2F)CCN1S(=O)(=O)c1ccc2c(c1)OCCO2,-12,-5,.,.,1,.,3,-3,
COc1ccc(NC(=S)Nc2ccc(OCc3ccccc3)cc2)cc1OC,-3,.,6,-2,-27,i,6,4,

# Four consecutive records already listed:
SMILES,CSC inhib,HIV Env fusion,eIF4H FP inh,PABP polyA inh,Yeast UUG start,Rce1 inhib,MT1-MMP act inh,MT1-MMP act inh RFP,others
COc1ccc(NC(=O)CSc2nc(O)cc(=O)n2-c2ccccc2OC)cc1,-9,.,3,8,3,i,-1,1,
Cn1cccc1C(=O)/C(C#N)=C/c1ccc(F)cc1,.,4,50,-1,-9,i,0,3,
COc1ccc(Cl)cc1NC(=O)COC(=O)CCCN1C(=O)c2ccccc2C1=O,-11,13,-9,-4,.,i,4,3,
O=C(COc1ccc2ccccc2c1)Nc1ccncc1,21,-5,-9,-5,.,i,0,-19,

# (next part)
SMILES,CSC inhib,HIV Env fusion,eIF4H FP inh,PABP polyA inh,Yeast UUG start,Rce1 inhib,MT1-MMP act inh,MT1-MMP act inh RFP,others
CCCC(=O)Nc1ccc(C(=O)NNC(=O)c2ccccc2Br)cc1,-5,4,5,-3,-21,i,2,5,
Cc1ccccc1N1C(=O)CC(N(O)c2ccccc2)C1=O (stereo not given),-7,-32,-3,2,-24,i,2,-1,
Cc1[nH]c2ccccc2c1C(=O)C(=O)NCCC1=CCCCC1,1,.,0,-8,.,i,2,-1,
COc1ccc(-c2ccc(C#N)c(SCC(=O)NCc3ccco3)n2)cc1OC,1,5,2,3,-16,i,0,1,
COc1ccc(-c2noc(CSc3ccc(C)cc3)n2)cc1,2,15,12,2,.,i,0,4,
CCN(CC(=O)Nc1ccc([N+](=O)[O-])cc1OC)c1ccccc1,-6,.,-7,-9,-1,i,0,-5,
COc1cc(OC)cc(C(=O)N2CCN(C(=O)c3ccc(OC)c(OC)c3)CC2)c1,1,32,-1,-3,5,i,5,5,
Cc1ccc(/C=C/C(=O)O)cc1S(=O)(=O)N1CCCc2ccccc21,-10,-4,-2,8,-3,i,1,3,
COc1ccc(C(C(=O)NC2CCCCC2)N(C(=O)c2csnn2)C2CC2)cc1 (stereo not given),-4,8,6,-3,-25,i,3,5,
Cc1ccccc1NS(=O)(=O)c1cc(C(=O)NCc2ccncc2)ccc1Cl,-2,-10,10,-3,-17,i,1,-3,
COc1ccc(CC(N)c2csc(Nc3nncc4ccccc34)n2)cc1 (stereo not given),.,58*,.,.,1,.,16,-4,
O=C(CN1CCN(CCC(=O)Nc2ccccc2F)CC1)Nc1ccc(F)cc1,9,.,-17,-4,-22,.,-1,2,
CCc1cc(C(=O)N2CCN(c3ccccn3)CC2)sc1C,-2,.,-16,2,-9,i,2,2,
O=C(c1nc2nc(-c3ccc(Cl)cc3)cc(C(F)(F)F)n2n1)N1CCOCC1,-9,17,-5,-9,-7,i,4,-12,
CCOC(=O)N1CCN(CC(O)COc2ccc(CC)cc2)CC1 (stereo not given),-4,-1,6,8,-6,i,3,3,
CC(=O)Nc1nnc(CCS(=O)(=O)c2ccc(Cl)cc2)s1,.,-4,2,2,.,.,4,1,
CC(C)Oc1ccc(S(=O)(=O)N2CCCCC2)cc1NC(=O)C1CCC1,-9,12,.,.,-2,i,2,-4,
Cc1ccc(OCC(=O)Nc2ccc(CN3CCOCC3)cc2)cc1,-11,13,-10,-4,-4,i,3,2,
CC(CN1CCOCC1)OC(=O)C1COc2ccccc2O1 (stereo not given),8,11,-14,4,.,i,2,0,
COc1ccc(N/N=C(\C#N)C(=N)N2CCCCC2)cc1,7,10,-1,14,.,i,3,1,
CC(/C=N/NC(=O)c1cccnc1)=C\c1ccco1,-6,.,12,24,-11,i,-5,2,
Cc1ccc(C(=O)OCC(=O)Nc2sccc2C(N)=O)cc1NC(=O)c1ccco1,-9,.,32,11,-1,i,-3,-11,
COc1cc(-c2noc(C)c2C(=O)NCCc2cccs2)cc(OC)c1OC,5,9,.,.,11,.,-2,3,
COc1ccccc1/C=C(\NC(=O)c1ccccc1)C(=O)NCc1ccco1,-1,13,5,-6,-12,i,-2,1,
COc1ccc(CN2C(=O)Cc3c2nc(N)c2c(N)nc(N4CCCCC4)c(C#N)c32)cc1,.,.,?,-10,.,i,.,.,
C=C(C)c1cccc(C(C)(C)NC(=O)N2CCN(CC)CC2)c1,-10,10,-4,2,2,i,1,5,
CC[n+]1c(/C=C(\C)Nc2ccccc2)sc2ccccc21,8,-23,-7,6,.,.,-2,8,
CCOc1ccc(C(=O)NC(=S)Nc2ccc(N3CCOCC3)c(Cl)c2)cc1[N+](=O)[O-],15,22,0,-6,4,i,-3,-11,
CCOc1ccc(CN(C)CC(=O)NNC(=O)c2ccc(Cl)cc2)cc1OC,-13,11,6,5,.,i,0,-6,
Cc1cccc(C(=O)NCC(=O)OCC(=O)N2CCc3ccccc32)c1,-6,0,-3,-6,.,i,-1,0,
COCCCNC(=O)C[C@H]1C[C@H](C(=O)N(C(C)C)C(C)C)[C@@]2(C)c3[nH]c4cc(-c5ccco5)ccc4c3CCN2C1=O,.,-9,.,.,8,.,-6,0,
COc1ccc(NC(=O)CN2CCN(CC(=O)Nc3ccc(OC)c(OC)c3)CC2)cc1,-10,.,1,-8,6,.,2,5,
COc1ccccc1CNC(=O)CCc1cn(C)c2ccccc12,-14,-7,-3,3,-12,i,1,-3,
COc1ccccc1C(=O)NCC(=O)N/N=C/c1cn[nH]c1-c1ccccc1,12,12,2,-2,-5,i,-2,-4,
CC(C1CC1)N(Cc1ccccc1)C(=S)Nc1ccccc1Cl (stereo not given),12,22,1,3,.,i,0,0,
Cc1ccc(C(=O)N2CCCN(c3nc4cc5c(cc4cc3C#N)OCO5)CC2)cc1,1,17,?,?,-15,i,-33,3,
COc1ccc(C(=O)C2CCCN(S(=O)(=O)N(C)C)C2)c(C)c1 (stereo not given),-2,11,3,-2,-5,i,-3,-2,
O=C(c1cc(C2CC2)nc2ccccc12)N1N=C(C(F)F)CC1(O)C(F)F (stereo not given),12,-71,-4,59,-12,i,5,4,eIF4H FP inh retest=1;PABP polyA inh retest=17
CCC(=O)N1CCc2cc(S(=O)(=O)CCC(=O)NCc3ccccc3OC)ccc21,-5,4,1,1,-30,i,-1,2,
O=S(=O)(c1ccc(Br)cc1)N1CCN(c2ccc3nnc(-c4ccccc4)n3n2)CC1,9,1,-2,6,-13,i,-2,-10,
Cn1cc([N+](=O)[O-])c(C(=O)NC2CCCCCC2)n1,-4,7,1,4,-27,i,-2,1,
COc1ccc(N=N/C(=C\O)C(=O)c2cccs2)cc1,88*,3,15,?,.,i,5,-7,
CNc1cncc(-c2ccc(F)c(F)c2)n1,.,-43,.,.,-8,.,-2,2,
CCc1ccccc1NS(=O)(=O)c1c(C(=O)N2CCCCCC2)c(C)n(C)c1C,12,15,-8,-4,7,i,2,0,
CCCCOC(=O)Nc1ccc(C(=O)OCCC)cc1,14,-17,4,-8,-15,i,1,2,
CCN(CC)S(=O)(=O)c1cc(OC)c(Cl)cc1Cl,-13,.,-4,-5,2,i,3,-3,
Nc1cc(=O)[nH]n1C1CCCCC1,9,14,-2,6,4,i,2,5,
CCOC(=O)CN1C(=O)Nc2ccc(Br)cc2C1c1ccccc1 (stereo not given),-11,-64,-14,2,-20,.,-3,-1,
